Shh pathway inh: blocks Sonic Hedgehog signaling; inhibition, % (test concentration not listed); hit rate 2.1% among 22,000; AID 2313; Shh-LIGHT2 Gli-luciferase reporter, 30 h;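 active means replicate mean of 65% or more; inconclusive means mean lower but half the replicates past it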;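 further: pathway switched on by Shh-conditioned medium diluted 1 in 25 in low serum; 100 nL library stock added to about 40 µL; 0% = median of neutral wells and 100% = positive control level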
MITF inh: blocks MITF activity | TRPM1 promoter luciferase, luminescence, 24 h | inhibition, % (concentration not given with the values) | hit rate 0.28% among 37,000;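 active means most replicates at 85% or more, or half of them and the mean; inconclusive means half reach 85% but not the mean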;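 further: human melanocyte line stably carrying TRPM1 promoter luciferase reporter; 0% = vehicle wells and 100% = a positive control; the first replicate is given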
YB-1 expression: YB-1 expression inhibition | U2OS, qRT-PCR YB-1 vs CDIP delta delta Cp, 16 h; active compounds read high; zero = DMSO, each unit about twofold | delta delta Cp (YB-1 minus CDIP) (concentration not given with the values) | hit rate 0.37% among 30,000 | AID 434959;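 active means delta delta Cp rounded down to an integer at or above 3, about 3 SD of DMSO wells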;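 further: higher means less YB-1 transcript or more CDIP transcript relative to DMSO; stock transfer was 100 nL into about 100 µL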
PD-1 reverse act: activators reversing PD-1 mediated T-cell inhibition; 29,000 tested, under 10 active; activation, % (test concentration not listed); primary human CD4 T cells, PD-L1 beads, CellTiter-Glo 96 h;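 active means replicate mean of 50% or more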;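 further: 0% = median vehicle wells and 100% = positive control; 100 nL library stock added to about 50 µL; numbers are from one replicate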
Active calls of the source: *; ? = inconclusive; · = not tested or not shown. Only part of the results is shown (hit frequency here may not be typical).

mol,Shh pathway inh,MITF inh,YB-1 expression,PD-1 reverse act
COc1ccc(C(=O)Cn2c3ccccc3n3nc(-c4cccs4)nc23)cc1OC,·,0,·,0.3
Cc1cc(C(=O)Nc2cccc3c2O[C@@H](CN(C)C(=O)Nc2ccc(F)cc2)[C@@H](C)CN([C@@H](C)CO)C3=O)n(C)n1,-32,-4,0.33,0.3
CCOC(=O)c1c(NC(=S)Nc2nc(C)cc(C)n2)sc(C)c1-c1ccccc1,·,-12,·,7.3
Cc1cc(C(=O)Nc2cccc3c2O[C@@H](CN(C)Cc2ccc(Cl)c(Cl)c2)[C@H](C)CN([C@@H](C)CO)C3=O)n(C)n1,-26,-11,-0.36,-3.9
C[C@@H]1CCCCO[C@@H](CN(C)Cc2ccccc2)[C@@H](C)CN([C@H](C)CO)C(=O)c2cc(NS(=O)(=O)c3cccs3)ccc2O1,4,2,0.88,-3.4
Cn1c(SCC(=O)Nc2ccc(Br)c(Cl)c2)nnc1-c1ccco1,·,10,·,-3.5
CC(C)NC(=O)N(C)C[C@H]1Oc2c(NC(=O)Nc3ccc(C(F)(F)F)cc3)cccc2C(=O)N([C@H](C)CO)C[C@H]1C,-15,12,-0.21,-3.5
C[C@@H]1CN([C@@H](C)CO)C(=O)c2cccc(NC(=O)C3CC3)c2O[C@H]1CN(C)S(=O)(=O)c1cccs1,-56,-16,-0.23,·
C[C@@H]1CN([C@@H](C)CO)C(=O)c2cc(NC(=O)CCC(F)(F)F)ccc2O[C@@H]1CN(C)Cc1ccc(C(=O)Nc2ccccc2N)cc1,·,-17,-0.049,-0.1
CC(C)(C)c1ccc(-c2[nH]nc(NS(=O)(=O)c3ccccc3)c2Br)cc1,95*,13,-0.085,-0.1
C=C[C@]1(C)C=C2CCC3C(C)(CCC[C@@]3(C)C(=O)O)C2CC1 (stereo partly drawn),-3,-2,-0.6,-0.5
CS(=O)(=O)N(CC(=O)Nc1ccccc1Br)c1cc(Cl)c(Cl)cc1Cl,·,6,·,-0.1
CNC[C@@H]1Oc2ccc(NC(=O)Cn3cnnn3)cc2CC(=O)N([C@H](C)CO)C[C@H]1C,-11,-5,0.026,·
Cc1ccc(S(=O)(=O)N(C)C[C@@H]2OCCCC[C@@H](C)Oc3ccc(NC(=O)Nc4ccccc4)cc3C(=O)N([C@H](C)CO)C[C@@H]2C)cc1,·,14,-0.1,·
COc1ccc(S(=O)(=O)Nc2cccc3c2O[C@@H](CN(C)C(=O)Nc2ccc4c(c2)OCO4)[C@@H](C)CN([C@H](C)CO)C3=O)cc1,-16,4,-0.26,-0.6
COc1ccc(S(=O)(=O)Nc2ccc3c(c2)C(=O)N([C@H](C)CO)C[C@@H](C)[C@H](CN(C)Cc2ccc(-c4ccccc4)cc2)O3)cc1,·,-3,·,2.1
COc1ccc(S(=O)(=O)N(C)C[C@@H]2Oc3ccc(NC(=O)Nc4ccccc4)cc3CC(=O)N([C@@H](C)CO)C[C@@H]2C)cc1,1,18,0.34,-1.1
Cc1noc(C)c1NC(=O)Nc1ccc2c(c1)C(=O)N([C@H](C)CO)C[C@@H](C)[C@@H](CN(C)S(=O)(=O)c1ccc(F)cc1)O2,-17,-9,-0.32,0.3
C[C@H]1CN([C@@H](C)CO)C(=O)c2cc(NC(=O)Nc3ccc(F)cc3)ccc2O[C@@H]1CN(C)S(=O)(=O)c1ccc(Cl)cc1,·,-8,-0.8,0.6
CC1CC(NC(=S)NCc2csc3ccccc23)CC(C)(C)C1 (stereo not drawn),?,36,0.2,-1.8
C[C@@H]1CN([C@H](C)CO)C(=O)Cc2cc(NC(=O)CCC(F)(F)F)ccc2O[C@H]1CN(C)S(=O)(=O)c1cn(C)cn1,·,-14,-0.12,·
c1ccc(-c2nnc3n2C2(CCCC2)Cc2ccccc2-3)cc1,·,19,-0.055,0.9
C[C@H]1CN([C@@H](C)CO)C(=O)c2cccc(NC(=O)Nc3cccc4ccccc34)c2O[C@H]1CN(C)C(=O)Nc1ccccc1,-37,0,-0.63,0.9
C[C@@H]1CN([C@H](C)CO)C(=O)c2cccc(N(C)C)c2O[C@H]1CN(C)C(=O)Nc1ccc(F)cc1,32,-3,0.24,-0.9
COc1ccc(S(=O)(=O)Nc2cccc3c2O[C@@H](CN(C)Cc2ccc(C(=O)Nc4ccccc4N)cc2)[C@@H](C)CN([C@H](C)CO)C3=O)cc1,·,34,-0.18,1.7
Cc1ccc(S(=O)(=O)N(C)C[C@H]2Oc3ccc(NC(=O)Nc4ccc5c(c4)OCO5)cc3C(=O)N([C@@H](C)CO)C[C@H]2C)cc1,-3,13,0.3,-0.6
C[C@H]1CN([C@@H](C)CO)C(=O)c2cc(N(C)C)ccc2O[C@@H]1CN(C)Cc1ccc2c(c1)OCO2,-1,1,-0.16,0.4
O=C(CSc1ncccn1)Nc1ccc(Cl)cc1,·,-77,·,-6.3
COc1ccc(S(=O)(=O)Nc2ccc3c(c2)CC(=O)N([C@@H](C)CO)C[C@H](C)[C@H](CN(C)Cc2ccc(C(F)(F)F)cc2)O3)cc1,44,31,0.051,2.6
C[C@H](CO)N1C[C@H](C)[C@H](CN(C)S(=O)(=O)c2ccc(Cl)cc2)Oc2ccc(NC(=O)CCCCCC(=O)Nc3ccccc3N)cc2C1=O,·,-8,-0.082,-0.6
CNC[C@@H]1Oc2c(NC(=O)c3ccncc3)cccc2C(=O)N([C@H](C)CO)C[C@@H]1C,-28,-6,-0.0092,0.1
CC(C)(C)S(=O)(=O)/C(C#N)=C/Nc1ccccn1,-2,8,-0.42,0.7
C[C@@H]1CN([C@@H](C)CO)C(=O)c2cccc(NS(=O)(=O)c3ccc(Cl)cc3)c2O[C@@H]1CN(C)S(=O)(=O)c1ccc(F)cc1,10,1,0.3,-2.9
Cc1noc(C)c1NC(=O)Nc1ccc2c(c1)CC(=O)N([C@H](C)CO)C[C@H](C)[C@H](CN(C)S(=O)(=O)c1cccs1)O2,16,13,-0.32,3.2
COc1ccc(C)cc1S(=O)(=O)N1CCC(C(=O)Nc2cc([N+](=O)[O-])ccc2C)CC1,·,10,·,0.2
CNC[C@H]1Oc2c(NC(=O)c3cnccn3)cccc2C(=O)N([C@@H](C)CO)C[C@@H]1C,8,-8,0.067,1.4
CS(=O)(=O)N(CC(=O)Nc1ccccc1C(=O)O)c1cccc(C(F)(F)F)c1,·,-9,·,1.7
C[C@@H]1CN([C@@H](C)CO)C(=O)c2cccc(NC(=O)c3ccc(-c4nccs4)cc3)c2O[C@@H]1CN(C)Cc1ccncc1,3,-5,0.38,0.2
CC1C(=O)C23CC(O)C4C(C)(C(=O)OC5OC(CO)C(O)C(O)C5O)CCCC4(C)C2(O)CCC1C3 (stereo not drawn),-5,-3,0.29,2.1
C[C@@H]1CCCCO[C@H](CN(C)Cc2ccncc2)[C@@H](C)CN([C@H](C)CO)C(=O)c2cc(NC(=O)CCCCCC(=O)Nc3ccccc3N)ccc2O1,·,-15,-0.051,-0.6

In a second layout: entries from further up.
Values run as follows: Shh pathway inh, MITF inh, YB-1 expression, PD-1 reverse act
> Cc1ccc(S(=O)(=O)N(C)C[C@H]2Oc3ccc(NC(=O)Nc4ccc5c(c4)OCO5)cc3C(=O)N([C@@H](C)CO)C[C@H]2C)cc1
    -3, 13, 0.3, -0.6
> C[C@H]1CN([C@@H](C)CO)C(=O)c2cc(N(C)C)ccc2O[C@@H]1CN(C)Cc1ccc2c(c1)OCO2
    -1, 1, -0.16, 0.4
> O=C(CSc1ncccn1)Nc1ccc(Cl)cc1
    ·, -77, ·, -6.3
> COc1ccc(S(=O)(=O)Nc2ccc3c(c2)CC(=O)N([C@@H](C)CO)C[C@H](C)[C@H](CN(C)Cc2ccc(C(F)(F)F)cc2)O3)cc1
    44, 31, 0.051, 2.6

Later entries
mol,Shh pathway inh,MITF inh,YB-1 expression,PD-1 reverse act
CCCC[C@@H](O)c1cc(OC)cc(=O)o1,-31,9,-0.45,1.5
C[C@@H]1CN([C@H](C)CO)C(=O)c2cc(NS(=O)(=O)c3cccs3)ccc2O[C@@H]1CN(C)Cc1ccc(-c2ccccc2)cc1,31,42,0.037,-1.4
Cc1cccc(NC(=O)COc2ccc3c(=O)c(-c4ccccc4)coc3c2)c1C,·,1,·,-0.3
COc1ccc(CN(C)C[C@@H]2Oc3ccc(NC(=O)Cc4cn(C)c5ccccc45)cc3CC(=O)N([C@@H](C)CO)C[C@@H]2C)cc1,-16,12,-0.093,·
C[C@H]1CN([C@@H](C)CO)C(=O)c2cc(NC(=O)NC3CCCCC3)ccc2O[C@H]1CN(C)Cc1ccc2c(c1)OCO2,11,-3,0.031,-1.7
COc1ccc(NC(=S)Nc2cnn(C)c2C(N)=O)c(OC)c1,·,-13,·,2.0
c1ccc2c(c1)oc1c(N3CCCCC3)ncnc12,·,7,0.14,0.4
C[C@@H]1CN([C@@H](C)CO)C(=O)c2cccc(NC(=O)c3cnccn3)c2O[C@@H]1CN(C)Cc1ccc(Cl)c(Cl)c1,12,-21,-0.18,·
CCN(CC)CCC1S(=O)(=O)CC(c2ccccc2)CS1(=O)=O (stereo not drawn),-46,-11,0.27,-3.2
O=C1c2ccccc2C(=O)N1CC12CC3CC(CC(C3)C1)C2,·,5,-0.069,-3.8
C[C@@H]1CN([C@@H](C)CO)C(=O)c2cccc(NC(=O)c3ccc(-c4nccs4)cc3)c2O[C@@H]1CN(C)Cc1ccc(Oc2ccccc2)cc1,-42,1,-0.6,-4.8
C[C@H]1CN([C@@H](C)CO)C(=O)c2cccc(NC(=O)Nc3ccc(C(F)(F)F)cc3)c2O[C@@H]1CN(C)S(=O)(=O)c1ccccc1,22,18,0.41,·
COc1ccc(S(=O)(=O)N(C)C[C@@H]2Oc3ccc(NS(=O)(=O)c4ccc(C)cc4)cc3C(=O)N([C@H](C)CO)C[C@H]2C)cc1,7,4,0.16,0.4
Cc1noc(C)c1NC(=O)Nc1cccc2c1O[C@@H](CN(C)Cc1ccc3c(c1)OCO3)[C@@H](C)CN([C@H](C)CO)C2=O,11,9,0.46,1.7
COc1ccc(N2C(=O)CC(SCC(=O)Nc3ccc(C)cc3)C2=O)cc1 (stereo not drawn),·,3,·,-1.4
C[C@H]1CN([C@@H](C)CO)C(=O)c2cc(NC(=O)Nc3ccc4c(c3)OCO4)ccc2O[C@H]1CN(C)S(=O)(=O)c1ccc(Cl)cc1,?,-26,-0.28,0.3
CCN1CCC[C@H]1CNC(=O)c1c(O)c(Cl)cc(Cl)c1OC,-2,-3,0.53,·
COc1ccc(NC(=O)Nc2cccc3c2O[C@H](CN(C)C(=O)NC(C)C)[C@@H](C)CN([C@@H](C)CO)C3=O)cc1,15,-21,-0.26,1.2
CC1CCc2c(sc3ncn(CC(=O)Nc4ccccc4F)c(=O)c23)C1 (stereo not drawn),·,-14,·,1.5
CC(=O)c1cn(CC(=O)Nc2ccccc2)c2ccccc12,·,36,·,-0.6
CCOC(=O)c1c[nH]c(=S)[nH]c1=O,9,-17,-0.3,4.5
C[C@H](CO)N1C[C@H](C)[C@@H](CN(C)Cc2ccc(C(=O)Nc3ccccc3N)cc2)Oc2ccc(NC(=O)c3ccncc3)cc2C1=O,·,-3,-0.076,-0.4
C[C@H](CO)N1C[C@H](C)[C@H](CN(C)Cc2ccc(Cl)c(Cl)c2)Oc2c(NC(=O)C3CCOCC3)cccc2C1=O,22,3,0.13,-1.1
C[C@H]1CN([C@@H](C)CO)C(=O)c2cc(NC(=O)Cc3cn(C)c4ccccc34)ccc2O[C@H]1CN(C)C(=O)Nc1ccc(F)cc1,·,13,0.1,-1.9
CC(=O)c1cccc(NC(=O)C(C)NS(=O)(=O)c2ccc(Br)cc2)c1 (stereo not drawn),·,-9,·,1.8
C[C@H]1CN([C@@H](C)CO)C(=O)c2cc(NC(=O)CCCN(C)C)ccc2O[C@@H]1CN(C)CC1CC1,-17,10,-0.32,0.7
C[C@@H]1CN([C@H](C)CO)C(=O)Cc2cc(NS(=O)(=O)c3ccc(Cl)cc3)ccc2O[C@@H]1CN(C)Cc1ccc(-c2ccccc2)cc1,20,46,-0.3,-5.2
Cn1nnnc1SCC(=O)Nc1ccc(N2CCOCC2)c(Cl)c1,·,-36,·,-0.5
CNC[C@@H]1Oc2c(NC(=O)c3cnccn3)cccc2C(=O)N([C@@H](C)CO)C[C@@H]1C,-13,-4,-0.15,2.1
